rRNA inh HTS – reduced GFP signal of wild-type E. coli, primary screen, bacterial rRNA inhibitor project, GFP/RFP fluorescence, OD600, single point | E. coli WT GFP vs humanized-ribosome RFP mutants, 24 h; active compounds read low; DMSO median 0, no signal -100 | GFP signal change (wild-type ribosome), % (test concentration not listed) | actives 1.6% (n = 350,000) | AID 720706, 2013;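 active = significant combined selectivity score with lowered wild-type GFP, culture density cut under 30%, mutant RFP and density less affected; inactive = any of these conditions unmet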; note: one replicate is shown; some compounds called inactive have numbers as strong as hits
FGF22 binding – binders of human FGF22 protein, primary screen, FGF22 synaptogenesis inhibitor project, biophysical, thermal shift, single point; Fibroblast growth factor 22 (Homo sapiens), Q9HCT0; recombinant FGF22 thermal shift, SYPRO orange fluorescence; percent of sucrose octasulfate shift, DMSO zero; calls only at 9.99 µM; actives 1.5% (n = 340,000); AID 651658, 2012;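 active = melting point raised past a set limit in the mean and every replicate; three in four hits are not shown here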
Target sequence (Q9HCT0 whole entry, looked up): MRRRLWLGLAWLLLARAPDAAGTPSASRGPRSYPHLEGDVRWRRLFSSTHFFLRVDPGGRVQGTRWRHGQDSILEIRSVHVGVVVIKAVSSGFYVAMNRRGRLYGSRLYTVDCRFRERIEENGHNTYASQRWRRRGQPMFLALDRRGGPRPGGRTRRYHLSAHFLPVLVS
rRNA inh HTS OD600 – further read-out of rRNA inh HTS, marked with its call; OD600 change, %; measured here: OD600 growth;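 optical density of the mix in the first replicate; 0 = DMSO median and -100 = no signal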
rRNA inh HTS RFP – also measured in rRNA inh HTS; calls as there; RFP signal change, %; measured here: RFP humanized mutant strains;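 first replicate; 0 = DMSO median and -100 = no signal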
Starred values were filed as active, the others as inactive; i = inactive; + = active, no number. This is a subset (hit frequency here may not be typical).

No.	compound	rRNA inh HTS OD600	rRNA inh HTS RFP	rRNA inh HTS	FGF22 binding
1	COc1ccccc1S(=O)(=O)N[C@@H]1CC[C@H](CC(=O)NCc2cccc(F)c2)O[C@H]1CO	-1	2.3	0	i
2	CC(C)C#Cc1cnc2c(c1)C(=O)N([C@H](C)CO)C[C@@H](C)[C@H](CN(C)S(=O)(=O)c1cn(C)cn1)O2	-2	0.0	2	i
3	O=C(NCCc1ccncc1)[C@H]1[C@H](CO)[C@H]2Cn3c(ccc(-c4ccccc4)c3=O)[C@@H]1N2	2	0.3	0	i
4	CCCN(C)C[C@H]1OCCCC[C@H](C)Oc2ccc(NS(=O)(=O)c3ccccc3)cc2C(=O)N([C@@H](C)CO)C[C@@H]1C	0	4.6	4	i
5	C[C@@H]1CN([C@H](C)CO)S(=O)(=O)c2ccc(C#Cc3ccccc3)cc2O[C@@H]1CN(C)C(=O)C1CC1	3	10	3	i
6	C[C@H](CO)N1C[C@H](C)[C@@H](CN(C)C(=O)Nc2cccc3ccccc23)OCCCC[C@H](C)Oc2ccc(NC(=O)c3ccncc3)cc2C1=O	-23	-7.6	2	i
7	C[C@@H]1CN([C@H](C)CO)C(=O)c2cc(NC(=O)Nc3ccc4c(c3)OCO4)ccc2O[C@@H]1CN(C)Cc1ccncc1	11	-3.0	2	i
8	COc1ccc(S(=O)(=O)Nc2ccc3c(c2)C(=O)N([C@@H](C)CO)C[C@@H](C)[C@H](CN(C)S(=O)(=O)c2ccccc2)OCCCC[C@@H](C)O3)cc1	-5	0.5	-3	i
9	O=C(c1cccc(F)c1)N1CCCCN2[C@H](C1)[C@H](c1ccc(-c3ccncc3)cc1)[C@@H]2CO	-3	1.0	-3	i
10	O=C(CC1CC1)N1CC(=O)N2[C@@H](CO)[C@@H](c3ccc(-c4cccnc4)cc3)[C@@H]2C1	-7	2.4	-1	i
11	CN1[C@H](C(=O)N2CCc3ccccc3C2)[C@@H](CO)[C@@H]2Cn3c(ccc(-c4cncnc4)c3=O)[C@@H]21	-3	1.2	0	i
12	COc1cccc(C(=O)Nc2ccc3c(c2)OC[C@H](C)N(CCc2ccccc2)C[C@@H](C)[C@H](OC)CN(C)C3=O)c1	0	0.2	-4	i
13	O=C(C[C@H]1CC[C@H]2[C@@H](COC[C@@H](O)CN2C(=O)c2ccncc2)O1)NC1CCC1	-5	0.1	-1	i
14	O=C(NCC[C@@H]1CC[C@@H](NC(=O)C2CCCC2)[C@H](CO)O1)c1cc(Cl)cc(Cl)c1	-7	2.6	-6	i
15	C[C@@H]1CN([C@@H](C)CO)C(=O)c2cc(C#Cc3ccccc3F)cnc2O[C@@H]1CN(C)C(=O)C1CCOCC1	-5	1.3	2	i
16	Cc1ccc(S(=O)(=O)Nc2ccc3c(c2)CC(=O)N([C@@H](C)CO)C[C@H](C)[C@@H](CN(C)S(C)(=O)=O)O3)cc1	11	-3.2	3	+
17	C[C@@H]1CN([C@H](C)CO)C(=O)c2cc(NC(=O)Nc3ccccc3)ccc2O[C@@H](C)CCCCO[C@@H]1CN(C)C(=O)NC1CCCCC1	-2	0.2	1	i
18	O=C(NCC[C@@H]1CC[C@@H](NS(=O)(=O)Cc2ccccc2)[C@@H](CO)O1)C1CCCCC1	-2	-0.1	-1	i
19	CS(=O)(=O)N1[C@@H]2Cn3c(cccc3=O)[C@H]1[C@@H](C(=O)NCc1ccccc1)[C@@H]2CO	3	-5.7	1	i
20	Cc1noc(C)c1S(=O)(=O)N(C)C[C@H]1OCCCC[C@@H](C)Oc2ccc(NC(=O)Cc3ccccc3)cc2C(=O)N([C@H](C)CO)C[C@@H]1C	-4	0.8	2	i
21	C[C@@H]1CN([C@H](C)CO)C(=O)c2cc(/C=C/c3ccccc3)cnc2O[C@H]1CN(C)C(=O)c1cccnc1	6	-4.9	2	i
22	C[C@@H]1CN([C@H](C)CO)S(=O)(=O)c2ccc(Br)cc2O[C@@H]1CN(C)C(=O)CC1CC1	-6	-2.0	-5	i
23	C[C@H]1CN([C@@H](C)CO)C(=O)c2ccccc2-c2ccccc2CO[C@H]1CN(C)S(=O)(=O)c1ccc(Cl)cc1	-10	8.4	-4	i
24	O=C(NC1CCC1)[C@H]1[C@H](CO)[C@H]2Cn3c(ccc(/C=C/c4ccccc4)c3=O)[C@H]2N1Cc1ccncc1	-13	4.0	-5	i
25	C[C@H]1CN([C@@H](C)CO)C(=O)Cc2cc(NC(=O)CCC(F)(F)F)ccc2O[C@@H]1CN(C)C(=O)Nc1ccc(C(F)(F)F)cc1	1	-0.5	1	i

The listing continues.
No.	compound	rRNA inh HTS OD600	rRNA inh HTS RFP	rRNA inh HTS	FGF22 binding
26	C[C@H](CO)N1C[C@H](C)[C@H](CN(C)S(=O)(=O)c2ccccc2)Oc2c(NS(=O)(=O)c3cccs3)cccc2C1=O	-10	-0.2	-6	i
27	C[C@@H]1CN([C@@H](C)CO)S(=O)(=O)c2ccc(C#C[C@@H](C)O)cc2O[C@H]1CN(C)C(=O)C1CCC1	-1	-0.4	4	i
28	C[C@H](CO)N1C[C@H](C)[C@H](CN(C)Cc2ccc(C(=O)O)cc2)Oc2c(NS(=O)(=O)c3cccs3)cccc2C1=O	1	-2.9	4	i
29	Cc1ccc(S(=O)(=O)N(C)C[C@@H]2OCCCC[C@H](C)Oc3ccc(NC(=O)Nc4c(C)noc4C)cc3C(=O)N([C@@H](C)CO)C[C@H]2C)cc1	-5	-0.2	-1	i
30	O=C(C[C@H]1C[C@@H]2c3cc(NS(=O)(=O)c4ccc(F)cc4)ccc3O[C@@H]2[C@H](CO)O1)N1CCCCC1	6	-1.0	2	i
31	C[C@@H]1CN([C@H](C)CO)C(=O)c2cc(NC(=O)C3CC3)ccc2O[C@H]1CN(C)Cc1ccc(C(F)(F)F)cc1	-6	1.5	-3	i
32	C[C@@H]1CN([C@@H](C)CO)C(=O)Cc2cc(NS(=O)(=O)c3cccs3)ccc2O[C@@H]1CN(C)Cc1ccc(C(=O)Nc2ccccc2N)cc1	-11	-1.8	-3	i
33	CN(C)C(=O)C[C@H]1CC[C@@H]2[C@@H](COc3ccc(NC(=O)NCc4ccccc4)cc3C(=O)N2C)O1	8	0.5	2	i
34	C/C=C/c1cnc2c(c1)C(=O)N([C@@H](C)CO)C[C@H](C)[C@H](CN(C)C(=O)NC1CCCC1)O2	2	-1.4	1	i
35	CN(C)C(=O)C[C@@H]1CC[C@H](NC(=O)C2CCC2)[C@H](CO)O1	4	0.3	1	i
36	CN1CCN(C(=O)C[C@@H]2C[C@@H]3c4cc(NC(=O)c5cccnc5)ccc4O[C@@H]3[C@@H](CO)O2)CC1	-4	-0.5	1	i
37	Cc1noc(C)c1S(=O)(=O)Nc1ccc2c(c1)CC(=O)N([C@H](C)CO)C[C@@H](C)[C@H](CN(C)S(C)(=O)=O)O2	21	0.6	5	+
38	COc1ccc2c3c([nH]c2c1)[C@@H](CO)N(Cc1nccs1)CC31CCN(Cc2nccs2)CC1	-3	2.4	4	i
39	C[C@@H]1CN([C@H](C)CO)C(=O)Cc2cc(NC(=O)c3ccncc3)ccc2O[C@@H]1CN(C)Cc1ccc(-c2ccccc2)cc1	-43	14	-9	i
40	COc1ccc(NC(=O)Nc2ccc3c(c2)C(=O)N([C@@H](C)CO)C[C@H](C)[C@H](CN(C)S(=O)(=O)c2ccc(OC)cc2)O3)cc1	3	2.8	0	i
41	Cc1ccc(S(=O)(=O)N(C)C[C@H]2Oc3c(NC(=O)c4cc(C)nn4C)cccc3C(=O)N([C@H](C)CO)C[C@H]2C)cc1	-1	-1.2	1	i
42	O=C(C[C@@H]1C[C@@H]2c3cc(NC(=O)CC4CC4)ccc3O[C@@H]2[C@H](CO)O1)NCCN1CCCCC1	23	-0.1	10	i
43	C[C@@H]1CN([C@@H](C)CO)S(=O)(=O)c2ccc(C#CC3CC3)cc2O[C@@H]1CN(C)C(=O)c1cccnc1	-6	0.0	-5	i
44	C[C@H](CO)N1C[C@H](C)[C@@H](CN(C)Cc2ccc3c(c2)OCO3)Oc2ccc(NS(=O)(=O)c3cn(C)cn3)cc2C1=O	-1	0.0	1	i
45	CC(C)NC(=O)N(C)C[C@@H]1Oc2c(NC(=O)C3CCCCC3)cccc2C(=O)N([C@H](C)CO)C[C@H]1C	1	-3.5	-2	i
46	O=C(C[C@H]1C[C@@H]2c3cc(NC(=O)NC4CCCC4)ccc3O[C@@H]2[C@H](CO)O1)NCc1cccc(F)c1	5	-2.4	0	i
47	CCC(=O)Nc1ccc2c(c1)OC[C@H](C)N(CCC(F)(F)F)C[C@H](C)[C@@H](OC)CN(C)C2=O	1	0.7	-2	i
48	CC(C)NC(=O)N(C)C[C@H]1OCCCC[C@@H](C)Oc2ccc(NC(=O)Nc3ccc4c(c3)OCO4)cc2C(=O)N([C@H](C)CO)C[C@@H]1C	5	-1.2	-1	i
49	CC(C)NC(=O)N(C)C[C@H]1Oc2ncc(C#CCC3CCCC3)cc2C(=O)N([C@H](C)CO)C[C@@H]1C	7	2.0	4	i
50	CNC[C@H]1Oc2c(NS(C)(=O)=O)cccc2C(=O)N([C@@H](C)CO)C[C@@H]1C	22	-0.2	2	i

New compounds follow.
No.	compound	rRNA inh HTS OD600	rRNA inh HTS RFP	rRNA inh HTS	FGF22 binding
51	CC(C)C(=O)Nc1ccc2c(c1)C(=O)N(C)[C@@H]1CC[C@@H](CC(=O)NCc3cccc(F)c3)O[C@@H]1CO2	1	-0.9	0	i
52	C[C@@H]1CN([C@H](C)CO)C(=O)c2cccc(NC(=O)Nc3ccc4c(c3)OCO4)c2O[C@@H]1CN(C)Cc1ccc(C(F)(F)F)cc1	-22	3.6	-6	i
53	COc1ccc(NC(=O)N2CCCCN3[C@@H](CO)[C@H](c4ccc(C#CCC(C)C)cc4)[C@@H]3C2)cc1	-72	-14	-58	i
54	C[C@@H]1CN([C@@H](C)CO)C(=O)c2cc(-c3ccccc3F)cnc2O[C@H]1CN(C)C(=O)C1CCC1	-10	-3.2	-5	i
55	Cc1noc(C)c1NC(=O)Nc1ccc2c(c1)CC(=O)N([C@H](C)CO)C[C@@H](C)[C@@H](CN(C)Cc1ccccc1)O2	8	-3.6	1	i
56	COCC(=O)Nc1ccc2c(c1)[C@@H]1C[C@@H](CC(=O)NCc3ccc(OC)cc3)O[C@H](CO)[C@@H]1O2	-2	-0.7	2	i
57	C[C@@H](NC(=O)[C@H]1N[C@H]2c3ccc(-c4ccncc4)c(=O)n3C[C@H]2[C@@H]1CO)c1ccccc1	-4	-3.1	1	i
58	C[C@H](CO)N1C[C@H](C)[C@H](CN(C)Cc2ccc(C(F)(F)F)cc2)OCc2ccccc2-c2ccccc2C1=O	-9	1.6	-7	i
59	CCC(=O)N1CCC2(CC1)CN(Cc1cccc(Cl)c1)[C@H](CO)c1c2c2ccc(OC)cc2n1C	-9	-2.9	1	i
60	COc1ccc(CN2C[C@H](C)[C@H](OC)CN(C)C(=O)c3cc(NC(=O)c4nc5ccccc5s4)ccc3OC[C@@H]2C)cc1	1	20	-2	i
61	C[C@@H]1CN([C@H](C)CO)C(=O)c2cccc(N(C)C)c2O[C@H]1CN(C)C	-11	-0.5	-2	i
62	CN1C[C@@H]2[C@H](c3ccccc31)[C@@H](CO)N2C(=O)c1ccccn1	4	-0.4	-3	i
63	COc1ccc(S(=O)(=O)Nc2ccc3c(c2)CC(=O)N([C@H](C)CO)C[C@H](C)[C@H](CN(C)C(=O)Nc2ccc(C(F)(F)F)cc2)O3)cc1	-8	0.8	2	i
64	COc1ccc(NC(=O)N(C)C[C@@H]2Oc3ncc(-c4cccc(C(F)(F)F)c4)cc3C(=O)N([C@H](C)CO)C[C@@H]2C)cc1	-16	1.8	-2	i
65	C[C@@H]1CN([C@@H](C)CO)C(=O)c2cccc(NC(=O)c3ccncc3)c2O[C@H]1CN(C)C(=O)NC1CCCCC1	3	0.6	2	i
66	Cc1noc(C)c1S(=O)(=O)N(C)C[C@@H]1OCCCC[C@@H](C)Oc2ccc(NC(=O)C3CCCCC3)cc2C(=O)N([C@H](C)CO)C[C@@H]1C	-2	-1.8	4	i
67	Cc1ccc(S(=O)(=O)N(C)C[C@H]2OCCCC[C@@H](C)Oc3ccc(NS(=O)(=O)c4ccc(Cl)cc4)cc3C(=O)N([C@@H](C)CO)C[C@H]2C)cc1	-7	1.6	0	i

One compound at a time (already shown). Values in the order: rRNA inh HTS OD600, rRNA inh HTS RFP, rRNA inh HTS, FGF22 binding
COCC(=O)Nc1ccc2c(c1)[C@@H]1C[C@@H](CC(=O)NCc3ccc(OC)cc3)O[C@H](CO)[C@@H]1O2 is entered as -2, -0.7, 2, i
CCC(=O)N1CCC2(CC1)CN(Cc1cccc(Cl)c1)[C@H](CO)c1c2c2ccc(OC)cc2n1C is entered as -9, -2.9, 1, i
COc1ccc(NC(=O)N2CCCCN3[C@@H](CO)[C@H](c4ccc(C#CCC(C)C)cc4)[C@@H]3C2)cc1 is entered as -72, -14, -58, i

Looked up by structure from the list above:
No.	compound	rRNA inh HTS OD600	rRNA inh HTS RFP	rRNA inh HTS	FGF22 binding
52	C[C@@H]1CN([C@H](C)CO)C(=O)c2cccc(NC(=O)Nc3ccc4c(c3)OCO4)c2O[C@@H]1CN(C)Cc1ccc(C(F)(F)F)cc1	-22	3.6	-6	i
66	Cc1noc(C)c1S(=O)(=O)N(C)C[C@@H]1OCCCC[C@@H](C)Oc2ccc(NC(=O)C3CCCCC3)cc2C(=O)N([C@H](C)CO)C[C@@H]1C	-2	-1.8	4	i
61	C[C@@H]1CN([C@H](C)CO)C(=O)c2cccc(N(C)C)c2O[C@H]1CN(C)C	-11	-0.5	-2	i
